Screening data as filed in PubChem.
gsp antagonist: qHTS for Antagonists of gsp, the Etiologic Mutation Responsible for Fibrous Dysplasia/McCune-Albright Syndrome: qHTS; gsp-mutant cells, cAMP HTRF, 30 min; control for the full effect not named in the record; Potency, µM (top dose mostly 76.9 µM), for the others: at the highest dose activity change, negative = inhibition, actives largely listed as inhibitors; actives 0.4% (n = 340,000); active = falling curve of any shape with a large fitted effect; inconclusive = falling curve, mostly with a smaller effect; inactive = flat or rising curve; cell line not stated here;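 further: intracellular cAMP measured with PDE inhibitor Ro 20-1724 present during compound exposure; potency means the concentration at half of the fitted maximal effect; on the % scale 0 is the no-effect control and ±100 the full control effect; nearly all actives have a fitted effect of over 65% in size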
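Cells, 2000/well, grown 16–24 h in DMEM 10% FBS with 0.5 mg/ml G418, then compounds plus […] (300 uM addition stock), 30 min at 37C. cAMP read by HTRF (cAMP-d2 and anti-cAMP antibody-K in lysis buffer) after 30 min RT.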
D2 potentiator: Beta-Arrestin HTS for Positive Allosteric Modulators of the Human D2 Dopamine Receptor: Potentiators. AID 624464, 2012. potentiation, % (concentration not given with the values). actives 0.23% (n = 360,000). DiscoveRx D2 beta-arrestin cells, luminescence, 90 min; 100% = 57 uM dopamine signal. D(2) dopamine receptor (Homo sapiens), P14416; active = potentiation of 50% or more; inconclusive = 30% to 50%; inactive = 30% or less;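 further: compound concentration not given in the record; tested on top of an EC20 dose of dopamine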
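PathHunter beta-arrestin assay in DiscoveRx D2 cells. Compounds were added with an EC20 of dopamine (50 nM final) for 90 min at 37 deg C. Luminescence was read 1 h after detection reagent, with 57 uM dopamine as the EC100 control.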
Six1-Eya2 inh: qHTS Assay for Inhibitors of the Six1/Eya2 Interaction. AlphaScreen GST-Six1/His-Eya2 binding, biochemical; hits give low values; control for the full effect not named in the record. activity change, % (concentration not given with the values). actives 0.56% (n = 360,000); in the data active = activity change below about -65%; inconclusive = about -30% to -65%; inactive = above about -30%; further: on the % scale 0 is the no-effect control and ±100 the full control effect
Target sequence (O00167 whole entry, looked up): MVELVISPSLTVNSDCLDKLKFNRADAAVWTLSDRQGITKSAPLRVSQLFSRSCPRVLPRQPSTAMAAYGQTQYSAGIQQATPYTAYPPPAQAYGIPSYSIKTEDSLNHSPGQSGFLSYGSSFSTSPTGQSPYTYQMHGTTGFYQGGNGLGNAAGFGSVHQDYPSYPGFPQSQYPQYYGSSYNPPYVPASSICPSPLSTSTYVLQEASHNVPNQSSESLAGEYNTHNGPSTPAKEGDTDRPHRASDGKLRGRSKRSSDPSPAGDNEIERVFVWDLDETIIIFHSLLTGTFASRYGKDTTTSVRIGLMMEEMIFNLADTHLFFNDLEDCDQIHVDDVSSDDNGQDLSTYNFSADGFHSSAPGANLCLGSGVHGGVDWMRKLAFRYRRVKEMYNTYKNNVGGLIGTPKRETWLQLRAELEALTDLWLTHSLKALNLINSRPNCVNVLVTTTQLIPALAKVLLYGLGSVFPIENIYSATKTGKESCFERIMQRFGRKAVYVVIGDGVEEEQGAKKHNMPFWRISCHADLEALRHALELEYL
Target sequence (Q15475 whole entry, looked up): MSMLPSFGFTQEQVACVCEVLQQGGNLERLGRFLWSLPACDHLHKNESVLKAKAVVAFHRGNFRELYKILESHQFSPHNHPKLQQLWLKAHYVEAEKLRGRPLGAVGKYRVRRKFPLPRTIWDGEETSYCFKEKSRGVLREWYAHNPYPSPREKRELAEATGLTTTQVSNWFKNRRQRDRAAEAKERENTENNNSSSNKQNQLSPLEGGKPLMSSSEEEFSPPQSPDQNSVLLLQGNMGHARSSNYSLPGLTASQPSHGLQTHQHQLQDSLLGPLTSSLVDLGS
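Six1/Eya2 binding was read as AlphaScreen signal after compounds were pinned into GST-Six1 plus His-tagged Eya2 (5X stock 250/500 nM) in pH 8.0 Tris/NaCl/TCEP buffer, beads added, then incubated 1 h, 37 C, dark.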
D2 agonist: Beta-Arrestin HTS for Positive Allosteric Modulators of the Human D2 Dopamine Receptor: Agonists; D(2) dopamine receptor (Homo sapiens), P14416; DiscoveRx PathHunter D2 beta-arrestin, luminescence, 90 min; 100% = 57 uM dopamine signal; AID 624465, 2012; actives 0.084% (n = 360,000); activation, % (concentration not given with the values); in the data active = activation above about 40%; inconclusive = about 15% to 40%; inactive = below about 15%; further: compound concentration not given in the record; the text of the record calls up to 30% inactive
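DiscoveRx PathHunter D2 beta-arrestin cells (2,100/well) attached overnight, then compound-stimulated 90 min at 37 C in HBSS/10 mM HEPES/0.1% Tween-20 buffer; beta-galactosidase complementation read by luminescence after 1 h at ambient temperature. Dopamine 57 uM final (EC100) as control.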
gsp agonist: qHTS for Agonist of gsp, the Etiologic Mutation Responsible for Fibrous Dysplasia/McCune-Albright Syndrome: qHTS | gsp mutant cells, cAMP HTRF, 30 min; control for the full effect not named in the record | Potency, µM (doses to about 76.9 µM), for inactives: at the top dose activation (cAMP increase), hits mostly activators | actives 0.13% (n = 340,000); active = well fitted activation curve with a large enough effect; inconclusive = small, poorly fitted or top-dose-only effect, or another doubt; inactive = no such curve, though single readings can be large or run the other way; cell line not stated here;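 further: phosphodiesterase inhibitor Ro 20-1724 added with compounds to block cAMP breakdown; potency means the concentration at half of the fitted maximal effect; nearly all actives have a fitted effect of over 60% in size; about a fifth of the inactives were tested at one dose only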
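Cells stably selected in G418 were plated at 2000/well, grown 16-24 hr, then given compounds in DMSO with the PDE inhibitor […] (300 uM solution added) for 30 min at 37C; cAMP was read by HTRF.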
CtBP-E1A inh: qHTS Assay for Inhibitors of the CtBP/E1A Interaction; CtBP / adenovirus E1A interaction (AlphaScreen); AlphaScreen GST-E1A/His-CtBP binding, 1536-well; hits give low values; control for the full effect not named in the record; activity change, % (concentration not given with the values); actives 0.49% (n = 340,000); in the data active means activity change below about -65%; inconclusive means about -30% to -65%; inactive means above about -30%; further: on the % scale 0 is the no-effect control and ±100 the full control effect
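GST-E1A and His-tagged CtBP (125 nM each as 5X stock) were preincubated with pin-transferred compound for 2 h at 37 °C in the dark, then glutathione donor and nickel acceptor beads were added for 1 h before AlphaScreen reading.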
* hit, by the source's call; ? = inconclusive; · = not tested or not shown; [ ] = remark or other dose. The order is random; overall some 1.4% were active at least once.

SMILES	gsp antagonist	D2 potentiator	Six1-Eya2 inh	D2 agonist	gsp agonist	CtBP-E1A inh
NC(=O)c1c(Nc2nc3c(F)cccc3s2)sc2c1CCCC2	-11%	?	2	11	1%	?
O=C(NOCc1ccccc1)c1cccc([N+](=O)[O-])c1	2%	·	9	-1.3	·	9
Cc1cc(CN2CCC(n3nccc3NC(=O)c3ccccc3Cl)CC2)cc(C)c1O	3%	-20	1	-3.3	2%	·
CCOc1ccc(S(N)(=O)=O)cc1-c1nc2c(C(C)(C)C)nn(C)c2c(=O)[nH]1	-3%	-2	4	-0.5	11%[15.4 µM]	-2
O=C(Cn1cc(C(F)(F)F)ccc1=O)N/N=C/c1ccc(Cl)cc1Cl	2%	-14	5	1.9	-45%[inhibitor]	-4
COc1ccc(N2C(=O)CC(NC3CC3)C2=O)cc1 (centres undefined)	0%	8	4	1.7	?	7
COCCCNC(=O)C1C2C=CC3(CN(Cc4ccc(C)cc4)C(=O)C13)O2 (centres undefined)	4%	-12	-2	-1.4	-22%	-8
CCN(CC)S(=O)(=O)c1cccc(C(=O)OCC(=O)NC(C)c2ccccc2)c1 (centres undefined)	-17%	-5	-7	2.9	19%	3
CC1Cc2ccccc2N1C(=O)Cn1c(=O)cc(O)c2ccccc21 (centres undefined)	-10%	-7	-5	-4.5	?	0
CCCCn1c(CNC(=O)CCC)nc2ccccc21	7%	-12	-9	-3.5	3%	-4
COc1ccc(C)cc1NC(=O)C(OC(=O)CNC(=O)c1ccc(Br)cc1)c1ccccc1 (centres undefined)	-3%	-17	-6	-3.9	-5%	0
O=C(c1cnn2c(-c3ccccc3)cc(-c3ccccc3)nc12)N1CCN(Cc2ccccc2)CC1	-30%	-9	5	-2.5	-4%	-1
CC(C)C(=O)Nc1ccc([N+](=O)[O-])c(C(F)(F)F)c1	-14%	-7	0	-4.8	·	-1
O=C(CCNC(=O)c1ccc([N+](=O)[O-])cc1)Nc1ccc(F)cc1	-5%	-5	-2	1.4	-16%[15.4 µM]	-1
COc1cc(C(=O)NCCc2ccc(S(=O)(=O)N3CCCC3)cc2)cc(OC)c1OC	-32%	-7	-6	-19	12%	5
CCOC(=O)N1CCN(C(=O)Cn2ccc3c(OC)cccc3c2=O)CC1	-1%	1	4	-6.0	-28%	-16
CSc1ncccc1C(=O)OCC(=O)Nc1ccc(Cl)cn1	-16%	-18	-1	-3.7	11%	4
CN1C(=O)[C@H]2[C@@H](c3ccc(C(F)(F)F)cc3)N[C@]3(CCCN(Cc4ccc(F)cc4)C3=O)[C@H]2C1=O	·	-5	-19	-9.0	-114%[inhibitor]	-6
O=C(CNc1ccc(C(F)(F)F)cc1)Nc1cccc(S(=O)(=O)N2CCCCC2)c1	·	-12	-1	0.6	-75%[inhibitor]	1
NC(=O)C1CC12c1ccccc1-c1ccccc12 (centres undefined)	-13%	-3	4	-7.3	19%	-14
CCOc1ccc2oc(C(=O)N(C)CC(=O)Nc3ccc(OCC)c(OCC)c3)c(C)c2c1	-14%	-10	-17	-3.7	-6%[15.4 µM]	-1
Cc1cccc(NC(=O)CCCCCN2C(=O)c3ccccc3C2=O)n1	0%	-3	10	-0.2	-42%[inhibitor]	-10
CC(C)(C)N/N=C/c1cc(Cl)cc([N+](=O)[O-])c1O	-7%	-26	-1	-11	?	-13
CCN(CC)C(=O)CS(=O)(=O)CC(=O)Nc1cc(OCCOC)c(Cl)cc1Cl	-17%	1	7	2.4	-11%	10
O=C(CCNS(=O)(=O)c1ccccc1)NNC(=O)c1csc(N2CCOCC2)n1	-1%	-17	31	-4.0	12%	0
CCn1c(CNc2ccc(F)cc2)nnc1SCC(=O)OC1CCCCC1	-22%	-1	-5	-3.0	-60%	7
COc1ccc(NC(=O)C2CCCN(c3c4c(nc5ncnn35)CCC4)C2)cc1 (centres undefined)	4%	-5	1	-1.7	-1%	4
CCCNC(=O)C1(C)CCN1C(=O)c1cc(C)n(C)n1 (centres undefined)	·	1	8	5.1	·	5
Cc1ccc(-c2noc(Cn3cc(S(=O)(=O)N4CCCC4)ccc3=O)n2)cc1	-9%	-2	-4	-3.6	-10%	·
COc1cc(/C=C2\CCOC2=O)cc(OC)c1OC	5%	-3	0	-3.0	11%[15.4 µM]	-1
CCOC(=O)c1c(=O)n(O)c2ccc(OC)cc2[n+]1[O-]	-5%	-12	-4	-1.7	-20%	-1
O=C(CN1C(=O)C(=O)c2ccccc21)NC1CCCCC1	6%	-31	3	-12	-2%	4
CCN1CCN(c2cc3c(cc2F)c(=O)c(C(=O)O)cn3C2CC2)CC1	-5%	-7	-5	-5.5	·	-3
Cc1ccc(C)n1-c1ccc(NC(=O)c2ccccc2)cc1	-3%	-3	-5	-2.8	-1%[15.4 µM]	0
CC1(C)C(c2ccc(Cl)cc2)=[N+]([O-])C2(CCCC/C2=N\O)N1O (centres undefined)	0%	11	20	-3.8	3%	4
Cc1ccc(OC(=O)c2cccc(S(=O)(=O)N3CCN(C)CC3)c2)c(Br)c1	1%	8	-17	-3.0	4%[15.4 µM]	-4

Five entries out of the list above, arranged by their value in D2 potentiator, ascending.
Molecule | gsp antagonist | D2 potentiator | Six1-Eya2 inh | D2 agonist | gsp agonist | CtBP-E1A inh
O=C(CN1C(=O)C(=O)c2ccccc21)NC1CCCCC1 | 6% | -31 | 3 | -12 | -2% | 4
CCOC(=O)c1c(=O)n(O)c2ccc(OC)cc2[n+]1[O-] | -5% | -12 | -4 | -1.7 | -20% | -1
COc1ccc(NC(=O)C2CCCN(c3c4c(nc5ncnn35)CCC4)C2)cc1 (centres undefined) | 4% | -5 | 1 | -1.7 | -1% | 4
Cc1ccc(-c2noc(Cn3cc(S(=O)(=O)N4CCCC4)ccc3=O)n2)cc1 | -9% | -2 | -4 | -3.6 | -10% | ·
Cc1ccc(OC(=O)c2cccc(S(=O)(=O)N3CCN(C)CC3)c2)c(Br)c1 | 1% | 8 | -17 | -3.0 | 4%[15.4 µM] | -4

More results follow:
SMILES	gsp antagonist	D2 potentiator	Six1-Eya2 inh	D2 agonist	gsp agonist	CtBP-E1A inh
Cc1cc(NS(=O)(=O)c2ccc(NC(=O)c3cccnc3)cc2)nc(C)n1	10%	-5	-11	-1.8	-3%[15.4 µM]	6
O=C(Nc1ccccc1C(=O)NCC1CCCO1)c1ccc(Cl)cc1 (centres undefined)	5%	7	2	-2.1	-5%	1
C=CCn1c(SCC(C)=O)nc2scc(-c3ccc(C)o3)c2c1=O	8%	-8	-13	0.8	10%[15.4 µM]	-1
Cc1ccc[n+](CC(=O)Nc2ccc(C)c(C)c2)c1	8%	-2	-4	-3.5	-11%	15
CCOc1ccc(NC(=S)N2CCC(C(=O)c3ccc(OC)cc3)CC2)cc1	·	-9	-1	2.3	-2%	-25
CCOc1ccccc1/C=C/C(=O)c1ccc(Cl)cc1	6%	-7	-5	-2.7	-15%	-20
COc1cc(S(=O)(=O)NC2CC(C)(C)NC(C)(C)C2)c(OC)cc1Cl	21%	-5	-7	-4.7	-5%	-1
Cc1cc(C)c2c(n1)nn1c(N3CCN(c4ccccc4)CC3)cc(C)nc21	21%	-18	8	-2.8	34%	27
Nc1cccc(-c2csc(-n3ncc(C(=O)O)c3C(F)(F)F)n2)c1	12%	-8	-21	-3.0	?	0
O=C1C2C3C=CC(CNS(=O)(=O)c4ccccc4[N+](=O)[O-])(O3)C2C(=O)N1c1ccccc1 (centres undefined)	-3%	11	8	4.1	9%[15.4 µM]	2
CCc1ccc(NC(=O)CSCc2ccc(C(=O)O)cc2)cc1	-11%	-20	0	3.6	-39%[inhibitor]	-20
O=C(Nc1ccc2c(c1)nc1n2CCOC1)c1ccco1	-2%	-6	-1	-0.6	11%	2
COC(=O)CSc1nc(C)cc(C)c1C#N	2%	-4	9	-0.1	-31%[inhibitor]	5
CCCCN(C(=O)C1CCCO1)c1c(N)n(CCC)c(=O)[nH]c1=O (centres undefined)	1%	-5	3	-0.3	23%[15.4 µM]	13
N/C(=N\OC(=O)COc1ccc(Cl)cc1Br)c1ccncc1	12%	-3	4	1.8	0%[15.4 µM]	6
O=C(OCc1ccccc1)Oc1cncc(C(=O)O)c1	-7%	-11	-1	-2.4	11%	-9
COc1ccccc1C(=O)C1CCCN(C(=O)CCn2cnnn2)C1 (centres undefined)	7%	-2	4	-1.8	?	4
Cn1c(SCC(=O)OC2CCCCC2)nnc1-c1ccco1	1%	-15	3	1.4	-13%	5
O=C(Nc1cccc(Cl)c1)/C(=C\c1cccnc1)NC(=O)c1ccco1	1%	-3	1	-5.6	13%	·
C[C@H](CO)N1C[C@H](C)[C@@H](CN(C)S(=O)(=O)c2ccc(F)cc2)Oc2ccc(NS(=O)(=O)c3ccccc3)cc2C1=O	-16%	-6	6	0.3	-43%[inhibitor]	24
COc1ccc(/C(C)=N/NC(=O)C2CC2)cc1	8%	-3	1	-1.0	-29%	-2
O=C(NC1CCN(Cc2ccccc2)CC1)c1ccccc1OCc1ccccc1	-7%	-22	-12	-2.0	-23%	·
COc1cccc(NC(=O)c2cnc(SC)nc2C)c1	-3%	-5	5	-0.2	?	-4
COc1ccc(CCn2cnc3c([nH]c4ccccc43)c2=O)cc1	2%	-16	2	-4.6	19%	·
N#Cc1ccc(C23OCCN2CCn2nc4ccccc4c23)cc1 (centres undefined)	4%	-1	-4	-2.2	·	-18
CC(C)Oc1ccc(CNC(=O)c2ccc3nc(N4CCOCC4)sc3c2)cc1	-6%	-5	-7	0.8	-43%[inhibitor]	2
OC(COCc1ccc(Cl)cc1)CN1CCN(CC(O)COCc2ccc(Cl)cc2)CC1 (centres undefined)	6%	-9	3	-2.6	14%	2
CCC(C)(C)C1CCC2(CC1)NC(=O)N(CC(=O)N(C)CCOc1ccc(Cl)cc1)C2=O (centres undefined)	9%	21	3	-1.7	-3%	-2
COc1cccc(C(=O)NNC(=O)c2cccc(F)c2)c1	6%	-2	2	-1.4	-4%[15.4 µM]	11
CCOc1cc(CNCCc2ccc(S(N)(=O)=O)cc2)ccc1OCC(=O)NC1CCCCC1	10%	-29	?	-4.7	?	-4
O=C(COC(=O)/C=C/c1ccc([N+](=O)[O-])cc1)NCc1ccccc1	10%	-10	8	-1.3	8%	0
CCC(C)[C@H](NC(=O)NCc1ccc(OC)c(OC)c1)C(=O)O (some centres undefined)	-4%	-11	4	-0.9	16%	·
Cc1ccc(S(=O)(=O)N(CCCN(C)C)Cc2ccc3c(c2)OCO3)cc1	0%	-10	2	-5.9	-8%	·
